Screening data: PubChem, National Center for Advancing Translational Sciences (NCATS)
VDR inhibitor = inhibitors of human vitamin D receptor. VDR-SRC2-3 peptide fluorescence polarization, 2 h. AID 504847. Potency, µM, without a hit: max response, negative = inhibition, actives largely listed as inhibitors. actives 0.93% (n = 400,000). P11473; active = well fitted inhibition curve with a large enough effect; inconclusive = small, poorly fitted or top-dose-only effect, or another doubt; inactive = no such curve, though single readings can be large or run the other way; note: series mostly up to about 120 µM
Target sequence (P11473 whole entry, looked up): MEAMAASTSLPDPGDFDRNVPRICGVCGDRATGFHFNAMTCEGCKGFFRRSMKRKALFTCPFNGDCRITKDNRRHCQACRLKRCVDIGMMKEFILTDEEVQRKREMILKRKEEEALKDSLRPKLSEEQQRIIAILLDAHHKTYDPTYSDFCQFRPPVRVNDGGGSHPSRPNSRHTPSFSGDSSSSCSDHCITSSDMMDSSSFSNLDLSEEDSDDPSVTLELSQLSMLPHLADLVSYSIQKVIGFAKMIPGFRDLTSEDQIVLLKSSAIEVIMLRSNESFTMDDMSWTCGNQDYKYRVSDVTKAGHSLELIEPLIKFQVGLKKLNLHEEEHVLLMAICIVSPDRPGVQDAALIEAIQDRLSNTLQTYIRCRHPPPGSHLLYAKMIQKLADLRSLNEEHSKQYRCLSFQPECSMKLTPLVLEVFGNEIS
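Fluorescence polarization assay measuring small-molecule disruption of VDR binding to the coregulator peptide SRC2-3. Compounds were pin-transferred (23 nl) into the reagent mix and incubated 2 h at room temperature before reading.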
* hit, by the source's call; ? = inconclusive; & = joins results of further samples; [ ] = remark or other dose. % is set by controls: 0 for no effect and ±100 for the full control effect; potency is the fitted concentration of half-maximal effect. Only part of the results is shown. The share of hits here may be higher or lower than overall.

VDR inhibitor	structure
-8%	COc1ccc(C(CNC(=O)c2cccc(NS(=O)(=O)c3ccc(C)c(F)c3)c2)N2CCOCC2)cc1 (stereo not drawn)
-17%	CC(C)c1c(C(=O)N/N=C/c2c[nH]c3ccccc23)nnn1-c1nonc1N
-26%	O=C(NCCc1c[nH]c2ccccc12)c1ccc2[nH]c(=O)c(=O)[nH]c2c1
17%	COc1ccc(NC(=O)COC(=O)COc2cccc3c2OC(C)(C)C3)cc1
-9%	COc1ccccc1N1CCN(S(=O)(=O)CCNC(=O)c2ccc(Br)o2)CC1
-19%	CCCc1cc(=O)oc2c3c(cc(OCC(=O)NCc4ccncc4)c12)OC(C)(C)CC3
10%	Cc1cc(C(=O)OCC(=O)NCc2ccc(F)cc2)c2ccccc2n1
2%	CCCCn1c(N)c(N(CC)C(=O)c2cccc(S(=O)(=O)N3CCCc4ccccc43)c2)c(=O)[nH]c1=O
-3%	OC(CNCCc1ccc(Cl)cc1)COCc1ccco1 (stereo not drawn)
10%	Cc1ccc2nc(N(Cc3cccnc3)C(=O)CCc3ccccc3)sc2c1
3%	COc1ccc(CC(C)N2CCN(Cc3ccccc3)CC2)cc1OC (stereo not drawn)
15%	COc1ccc2cc(C(=O)c3ccccc3)c(=O)oc2c1
-10%	COc1ccccc1NC(=O)N[C@@H](Cc1c[nH]c2ccccc12)C(=O)NN
8%	CCn1c(=O)c(C(=O)NC(C)C)c(O)c2ccccc21
-11%	COc1ccc(Nc2ncc(C#N)c(N)n2)c(OC)c1
-6%	CCn1c(CC(=O)Nc2ccccc2C)nnc1SCC(=O)NC1CCCC1
-2%&10%	Cc1cc(C)n2c(Nc3ccc4c(c3)OCCO4)c(-c3ccccc3)nc2n1
-29%	c1ccc(SCCCCNC2CCCC2)cc1
7%	COc1cc(/C=C/C(=O)OCC(=O)Nc2cc(S(=O)(=O)N3CCCC3)ccc2Cl)cc(OC)c1OC
11%	Cc1ccc(NC(C)C(=O)N/N=C/c2ccc([N+](=O)[O-])s2)cc1 (stereo not drawn)
-11%	COc1ccc(CN(C)Cc2cc(=O)oc3cc(C)c(C(C)C)cc23)cc1OC
-9%	CC1CN(Cc2nc3c(c(=O)n(C)c(=O)n3C)n2CCc2ccccc2)CC(C)O1 (stereo not drawn)
-19%	COCCCNC(=O)CCNS(=O)(=O)c1ccc(C)cc1
-6%	CCC(C)(C)NC(=O)Cn1c(=O)ccc2cc(S(=O)(=O)N3CCC(C)CC3)ccc21
-22%	COc1ccc(-c2c3c(=O)n(C)c(=O)n(C)c3c3c(-c4ccccc4)nc4ccccc4n23)cc1
16%	Cc1ccc(N2CCN(S(=O)(=O)c3ccc4[nH]c5c(c4c3)CCCCC5)CC2)c(C)c1
-7%	COCOc1cc(O)c(C(=O)/C=C/c2ccc(OCOC)c(OCOC)c2)c(OCOC)c1
2%	CC(C)C[C@@H](C)C(=O)N(Cc1ccccc1)c1ccccc1
3%	Cc1cc(C)nc(SC(C)C(=O)N/N=C/c2cccs2)n1 (stereo not drawn)
-8%	COc1ccccc1N(CC(=O)NC1CCCCC1)C(=O)Cn1nnc(-c2ccc(C)o2)n1
-6%	O=C(OCC(=O)N1CCCCCC1)c1ccc(Br)c(S(=O)(=O)N2CCOCC2)c1
-13%	NS(=O)(=O)c1cccc(NC(=O)c2cccc3c(Br)cccc23)c1
-14%	CCOc1ccccc1CNC(=O)C(C)n1nc(C)c2c(C)n(-c3ccccc3)nc2c1=O (stereo not drawn)
-3%	CCNC(=O)c1ccc2nc(Cc3ccccc3)oc2c1
17%	COc1ccc(CCNCc2ccc3c(c2)n(C)c(=O)n3C)cc1OC
-4%	CCCN(CCC)C(=O)Cn1c(=O)n(CCCCC(=O)NCc2ccco2)c(=O)c2ccccc21
14%	COc1nc(N)nc(N)c1NS(=O)(=O)c1ccc(C)cc1
0%	Cc1ccccc1NC(=O)c1sc2nc3c(c(-c4ccco4)c2c1N)CCC3
-23%	CC1(C)OC2CC3C4CCC5=CC(=O)CCC5(C)C4(F)C(O)CC3(C)C2(C(=O)CO)O1 (stereo not drawn)
11%	CCOc1ccc(NC(=O)CSc2ncc3c(n2)-c2ccc(Cl)cc2N(Cc2ccccc2)S3(=O)=O)cc1
5%	Cc1noc(C)c1C(=O)OC(C(=O)NC1CCCC1)c1ccc(F)cc1 (stereo not drawn)
?	S=C(Nc1ccc2cn[nH]c2c1)Nc1ccccc1Cl
-15%	COc1ccc(-c2ccc3c(c2)c(C#Cc2ccsc2)c(-c2cc(OC)cc(OC)c2)n3C)cc1
1%	CCCC(=O)Nc1cc(C(=O)NCc2ccccc2)ccc1S(=O)(=O)c1ccc(Cl)cc1
4%	O=C(O)c1cccc(Cn2c(Cl)c(/C=N/NC(=O)c3ccc(O)cc3)sc2=O)c1
16%	CC(C)c1ccc(NC(=O)c2cc([N+](=O)[O-])ccc2N2CCOCC2)cc1
7%	Cn1nc(C(C)(C)C)c(NC(=O)c2cccs2)c1C(C)(C)C
9%	CC1CCN(S(=O)(=O)c2ccc(NC(=O)Cc3cccs3)cc2)CC1
8%	O=C(Nc1ccccc1N1CCN(C(=O)c2ccccc2)CC1)c1ccc(Cl)cc1
-12%	C[C@H](NC(=O)Cc1ccccc1)C(=O)N1CCC2(CC1)NCCc1[nH]cnc12

Next entries follow:
VDR inhibitor	structure
-14%	CCN(C(=O)CN1CCCCCC1)c1c(N)n(Cc2ccccc2)c(=O)[nH]c1=O
-22%	O=[N+]([O-])c1cc(F)c2cccnc2c1O
-18%	COc1ccc(OC)c(NC(=O)CC2C(=O)NCCN2C(=O)c2ccccc2)c1 (stereo not drawn)
-3%	CCOc1cc(NC(=O)c2cccs2)c(OCC)cc1NC(=O)c1ccco1
5%	CCc1ccc(C(=O)COC(=O)C(Cc2ccccc2)NC(=O)C2CCC(C)CC2)cc1 (stereo not drawn)
-22%	CC(=O)c1cccc(NC(=O)c2sc3nc4n(c(=O)c3c2C)CCCC4)c1
6%	CCOC(=O)CCCNC(=O)CN1C(=O)NC(CCc2ccccc2)C1=O (stereo not drawn)
-8%	CCOC(=O)N1CCN(CCC(=O)Nc2ccc(Br)cc2)CC1
10%	CCOc1ccc(NC(=O)CSc2nnc3c(n2)[nH]c2ccc(S(=O)(=O)N4CCCCC4)cc23)cc1
8%	CCS(=O)(=O)N1CCC2(CC1)OC(=O)C(C)=C2C(=O)NCc1ccc(OC)c(OC)c1
-1%	CCOc1ccc(NC(=O)CCC(=O)NNC(=O)Nc2cccc(Cl)c2)cc1
1%	CCN(CCS(=O)(=O)c1ccc(Cl)cc1)Cc1nc2ccccc2c(=O)[nH]1
5%	Cc1ccc2nc(SCC(=O)Nc3cccnc3Cl)[nH]c2c1
33%[activator]	COc1ccc(-c2noc(C(=O)NCc3ccccc3Cl)n2)cc1OC
-17%	CCN(CC)S(=O)(=O)c1ccc(C)c(NS(=O)(=O)c2cc(/C=C/C(=O)O)cc(OC)c2OC)c1
-22%	Cn1c(C(=O)NC2CC2)cc2c(=O)n(C)c3ccccc3c21
-8%	CCOC(=O)Cc1cnc(NC(=O)NC(C(=O)OCC)(c2ccccc2)C(F)(F)F)s1 (stereo not drawn)
22%	CCOC(=O)c1[nH]c(C)c(CCC(=O)Nc2cccc(SC)c2)c1C
5%	CCOC(=O)c1ccc(NC(=O)CCOc2ccc(OC)cc2)cc1
-2%	Cc1[nH]c2ccccc2c1/C=C(\C#N)C(=O)NCc1ccccc1
-3%	COCCn1c(C)cc(C(=O)COC(=O)c2ccccc2Br)c1C
10%	O=C(CSCc1ccc(F)cc1)N1CCc2c([nH]c3ccccc23)C1c1ccc(F)cc1 (stereo not drawn)
-3%	C=CCc1cccc2cc(C(=O)Nc3cccc(C(=O)O)c3)c(=O)oc12
-12%	O=C(CNC(=O)c1ccco1)OCC(=O)c1ccccc1Cl
-9%	O=C(NC1CCSc2ccccc21)c1cc(S(=O)(=O)N2CCOCC2)ccc1Cl (stereo not drawn)
-8%	O=C(Cc1cccs1)N1CCN(c2ccccn2)CC1
-4%	O=C(Cn1nnc2ccccc21)c1ccc([N+](=O)[O-])cc1
-3%	Cc1ccc(CCNC(=O)CCc2nc3ccccc3[nH]2)cc1
-2%	COc1cccc(CNC(=O)C2CCCN(S(=O)(=O)c3c(C)noc3/C=C/N(C)C)C2)c1 (stereo not drawn)
-30%	COc1cccc(C2c3[nH]c4ccccc4c3C[C@H]3C(=O)N(c4ccccc4C(=O)N4CCC(C(=O)O)CC4)C(=O)N23)c1 (stereo partly drawn)

Among those listed so far, four have a COOH group.
VDR inhibitor	structure
4%	O=C(O)c1cccc(Cn2c(Cl)c(/C=N/NC(=O)c3ccc(O)cc3)sc2=O)c1
-17%	CCN(CC)S(=O)(=O)c1ccc(C)c(NS(=O)(=O)c2cc(/C=C/C(=O)O)cc(OC)c2OC)c1
-3%	C=CCc1cccc2cc(C(=O)Nc3cccc(C(=O)O)c3)c(=O)oc12
-30%	COc1cccc(C2c3[nH]c4ccccc4c3C[C@H]3C(=O)N(c4ccccc4C(=O)N4CCC(C(=O)O)CC4)C(=O)N23)c1 (stereo partly drawn)

Next part
VDR inhibitor	structure
-1%	CCOCCc1nnc(NC(=O)C(=O)c2cc(C)n(-c3ccc(C)c(C)c3)c2C)s1
45µM*	COC(=O)c1c(-c2ccc(C(C)(C)C)cc2)csc1NC(=O)C1C2CCC(O2)C1C(=O)O (stereo not drawn)
4%	Cc1nnc(N2CCOCC2)c2nn(-c3cccc(Cl)c3)c(C)c12
?	CCOC(=O)N1CCN(c2c(F)cc3[nH]c(=S)[nH]c3c2Br)CC1
-1%	COc1ccccc1NC(=O)c1ccc(S(=O)(=O)N2CCC(C)CC2)cc1
-1%	COc1ccc(C(=O)COC(=O)Cn2nnc3ccccc32)cc1Br
-5%	CC(=O)Oc1ccccc1/C=C/c1nc2ccccc2c(=O)o1
2%	COC(=O)Nc1nnc(CC(=O)Nc2ccccc2C)s1
-9%	Cn1c(-c2csc(-c3ccccc3)n2)n[nH]c1=S
7%	Cc1cc(Cl)ccc1OCCCC(=O)Nc1ccc(S(=O)(=O)Nc2ncccn2)cc1

Reprinted at random: three records from the list.
VDR inhibitor	structure
-5%	CC(=O)Oc1ccccc1/C=C/c1nc2ccccc2c(=O)o1
17%	COc1ccc(CCNCc2ccc3c(c2)n(C)c(=O)n3C)cc1OC
-4%	O=C(Cn1nnc2ccccc21)c1ccc([N+](=O)[O-])cc1

Arranged by SMILES length (largest number first): three of the compounds above.
VDR inhibitor	structure
1%	CCN(CCS(=O)(=O)c1ccc(Cl)cc1)Cc1nc2ccccc2c(=O)[nH]1
-6%	CCn1c(CC(=O)Nc2ccccc2C)nnc1SCC(=O)NC1CCCC1
-1%	COc1ccc(C(=O)COC(=O)Cn2nnc3ccccc32)cc1Br

(cont.)
VDR inhibitor	structure
3%	Cc1ccc(NC(=O)Cn2c(=O)n(-c3ccccc3)c(=O)c3ccc(C(=O)NCc4ccc5c(c4)OCO5)cc32)c(C)c1
6%	CCOc1ccc(C(=O)Nc2ccc3nc(SCC(=O)N(C)c4ccccc4)sc3c2)cc1
-4%	O=C(OCC(=O)C12CC3CC(CC(C3)C1)C2)c1cccnc1Cl
-14%	CSc1ccc(CN(C)C(=O)C(c2ccccc2)c2ccccc2)cc1
1%	CCOc1ccc(CCNC(=O)c2nnc(Cc3ccc(Cl)cc3Cl)o2)cc1OCC
-1%	O=C(O)Cc1ccc(C(=O)c2cccs2)s1
-3%	CC1Oc2ccccc2N(CC(=O)NC2CC2)C1=O (stereo not drawn)
-7%	O=C(Oc1cc2oc(=O)cc(-c3ccccc3)c2cc1Cl)C1CCCCC1
-1%	O=C(O)c1cccc(N/N=C/c2cccc3ccccc23)c1
2%	Cc1ccc(NC(=O)CSc2nnc(C)c(=O)n2N)cc1Cl
7%	CCCCN1CC(COCc2ccccc2)Oc2cccc(F)c2S1(=O)=O (stereo not drawn)
-4%	CC1CN(Cc2nc3c(c(=O)n(C)c(=O)n3C)n2CC(=O)c2ccccc2)CC(C)O1 (stereo not drawn)
0%	Fc1ccc(NCc2cccn2-c2nnc(N3CCOCC3)s2)cc1
3%	O=C(CCn1ccc2cc(S(=O)(=O)N3CCCC3)ccc21)NCc1ccccc1Br
-6%	COc1cccc(C(=O)Nc2nc3c(c(=O)[nH]2)CCCC3)c1
-4%	CCOc1ccc(S(=O)(=O)N2CCC(C(=O)N3CCCCCC3)CC2)cc1Cl
-14%	COc1ccc(OC)c(NS(=O)(=O)c2c(C(=O)N3CCCCCC3)c(C)n(C)c2C)c1
-2%	COc1nc(C)ccc1-c1noc(-c2cccs2)n1
-1%	COc1cc(Cl)c(C)cc1NC(=O)c1cn(C2CCCC2)c(=O)c2c1c1ccccc1n2C
10%	COc1cc(CN(C(=O)c2cccc(Cl)c2)c2ccccn2)cc(OC)c1OC
-7%	COc1ccc(S(=O)(=O)Nc2ccccc2C(=O)N2CCOCC2)cc1F
2%	CCN1CCN(C(=O)c2ccc3nc(-c4ccccc4)c(-c4ccccc4)nc3c2)CC1
-2%	COc1ccccc1OCCNC(=O)C(CCSC)NS(=O)(=O)c1ccccc1F (stereo not drawn)
3%	CCc1ccc2nc(N(Cc3cccnc3)C(=O)Cc3ccccc3)sc2c1
-25%	COc1cc(OC)cc(-c2c(C#Cc3ccsc3)c3cc(-c4ccc(N(C)C)nc4)ccc3n2C)c1
-3%	CC1CCCC(NC(=O)CCNC(=O)c2ccc(Cl)cc2)C1C (stereo not drawn)
?	CNc1ccc(/C=C2\CSc3ccccc3C2=O)cc1[N+](=O)[O-]
-11%	COc1ccc(-c2nnn(CC(=O)NC3CCCc4ccccc43)n2)cc1OC (stereo not drawn)
-12%	NNC(=O)c1cc(Br)cs1
